# Cruzain noTriton: blocks cruzain activity in detergent-free assay. Potency, µM, without a hit: max response, negative = inhibition, usual class: inhibitors. P25779. purified cruzain, Z-FR-AMC fluorescence, no detergent. hit rate 2.3% among 200,000. AID 1476;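 note: plate controls were enzyme without inhibitor for no effect and buffer without enzyme for full effect; nearly all actives have a fitted effect of over 40% in size; top concentration of the series not given in the record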
# Target sequence (P25779 123-467 limits assumed): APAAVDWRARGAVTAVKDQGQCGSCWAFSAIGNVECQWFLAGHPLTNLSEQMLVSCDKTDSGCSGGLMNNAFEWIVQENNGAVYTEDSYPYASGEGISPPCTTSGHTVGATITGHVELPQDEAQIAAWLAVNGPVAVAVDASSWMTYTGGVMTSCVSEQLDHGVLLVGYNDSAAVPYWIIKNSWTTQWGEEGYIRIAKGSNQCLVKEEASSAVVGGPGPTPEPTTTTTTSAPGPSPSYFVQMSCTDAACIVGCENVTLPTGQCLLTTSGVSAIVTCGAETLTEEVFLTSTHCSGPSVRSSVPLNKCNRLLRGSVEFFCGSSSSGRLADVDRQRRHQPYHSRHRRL
#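 Detergent-free condition (0.00005% Triton X-100) in acetate buffer pH 5.5 with DTT. 1.5 nM enzyme and compound were pre-mixed 15 min, then 2 uM Z-FR-AMC substrate added; reaction progress from fluorescence change between first and third reads (60 s).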
# Marburg entry inh: blocks Marburg virus binding to or entry into cells | hit rate 1.8% among 300,000 | AID 540276 | Marburg virus pseudotyped entry inhibition, cell reporter; control for the full effect not named in the record; about a third of the inactives were read at about 46 µM | Potency, µM (series often up to 37.8 µM), for inactives: top-dose activity change, negative = inhibition, usual class: inhibitors; active = well fitted inhibition curve with a large enough effect; inconclusive = small, poorly fitted or top-dose-only effect, or effect the other way; inactive = flat fitted curve, though single readings scatter; tested in HEK293 cells; about a fifth of its hits are not listed in these tables; note: % is set by controls: 0 for no effect and ±100 for the full control effect; luciferase read-out
# NS1 function inh: influenza NS1 inhibition; S. cerevisiae slowed by influenza A NS1, growth recovery by OD600; Potency, µM (titrated, usually from 46.1 µM), for inactives: at the top dose activity, positive = more growth; hit rate 0.4% among 270,000; AID 2326; active means well fitted rising curve with a large enough effect; inconclusive means small, poorly fitted or top-dose-only effect; inactive means no such curve, though single readings can be large or run the other way; note: nearly all actives have a fitted effect of over 50% in size
#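 Read-out: OD600 growth recovery of NS1-expressing budding yeast. Cells grown overnight at 30C in -URA glucose medium, washed, resuspended and diluted 1:100 in 2% galactose assay medium, pH 6.0. Same strain lacking NS1 served as positive control.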
# RE007 growth inh: less growth of the S. pombe RE007 Vpr strain. hit rate 0.21% among 360,000. Potency, µM (series often up to 92.2 µM), for the others: at the top dose activity change, negative = less growth. S. pombe RE007 Vpr strain, BacTiter-Glo ATP luminescence, 24 h; control for the full effect not named in the record. AID 651644; active = well fitted falling curve with a large enough effect; inconclusive = small, poorly fitted or top-dose-only effect; inactive = no such curve, though single readings can be large or run the other way;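 note: % is set by controls: 0 for no effect and ±100 for the full control effect; nearly all actives have a fitted effect of over 50% in size; the assay follows cell death caused by Vpr and the record does not say whether a fall means rescue or toxicity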
#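 Fission yeast RE007 carrying one integrated HIV-1 vpr copy, seeded at OD 0.01 in PMG+AL medium with 23 nL pinned compound. Grown 24 h at 30 degrees; viability read by BacTiter-Glo luminescence after 5 min.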
# SARS PLP yeast: SARS-CoV PLP inhibition in yeast; hit rate 0.19% among 330,000; S. cerevisiae expressing SARS-CoV PLpro, growth rescue; control for the full effect not named in the record; Potency, µM (series often up to 32.9 µM), without a hit: at the top dose activity, positive = growth rescue; active means well fitted rising curve with a large enough effect; inconclusive means small, poorly fitted or top-dose-only effect; inactive means no such curve, though single readings can be large or run the other way; note: 0% is about no effect; nearly all actives have a fitted effect of over 55% in size; growth read by luminescence after 48 h
# StopGo reporter: lowers the luciferase signal of an FMDV 2A StopGo reporter. human cells with a luciferase reporter of 2A StopGo recoding; control for the full effect not named in the record. Potency, µM (doses to about 57.9 µM), for inactives: at the highest dose signal change, negative = less light. hit rate 1.2% among 410,000; active = well fitted falling curve with a large enough effect; inconclusive = small, poorly fitted or top-dose-only effect; inactive = no such curve, though single readings can be large or run the other way; tested in HEK293T cells; note: % is set by controls: 0 for no effect and ±100 for the full control effect; nearly all actives have a fitted effect of over 45% in size; luciferase light after 4 h
# Lassa entry inh: blocks Lassa virus binding to or entry into cells. Lassa virus pseudotype entry inhibition, cell reporter; control for the full effect not named in the record. Potency, µM (highest dose often 37.9 µM), for inactives: top-dose activity change, negative = inhibition, actives largely listed as inhibitors. hit rate 1.2% among 300,000; active means well fitted inhibition curve with a large enough effect; inconclusive means small, poorly fitted or top-dose-only effect, or effect the other way; inactive means flat fitted curve, though single readings scatter; tested in HEK293 cells; note: % is set by controls: 0 for no effect and ±100 for the full control effect; nearly all actives have a fitted effect of over 50% in size; luciferase read-out
# Cruzain Triton: inhibitors of Trypanosoma cruzi cruzain with detergent; P25779; purified cruzain, Z-FR-AMC fluorescence, 0.01% Triton; hit rate 0.43% among 200,000; Potency, µM, for the others: max response, negative = inhibition, usual class: inhibitors; AID 1478;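 note: plate controls were neutral wells for no effect and buffer without enzyme for full effect; nearly all actives have a fitted effect of over 40% in size; top concentration of the series not given in the record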
#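 In this qHTS format, compounds are incubated with 1.5 nM cruzain for 15 min at room temperature before 2 uM Z-FR-AMC is added. Release of AMC is followed at 360/450 nm, and progress is taken as the 60 s fluorescence difference.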
# * hit, by the source's call; u = inconclusive; x = no result given; & = joins results of further samples; [ ] = another dose, or the depositor's remark. Unless noted, calls come from the whole dose curve; as a rule, active = well fitted curve in the direction sought with a large enough effect; inconclusive = small, poorly fitted or top-dose-only effect, or another doubt; inactive = no such curve, though single readings can be large; an effect the other way counts as inactive or inconclusive. Potency is the fitted concentration of half-maximal effect. Compounds were not picked by outcome (roughly 4.6% active in at least one column).
SMILES,Cruzain noTriton,Marburg entry inh,NS1 function inh,RE007 growth inh,SARS PLP yeast,StopGo reporter,Lassa entry inh,Cruzain Triton
CN1CCN(CCCNC(=O)c2cc3c(=O)oc4ccccc4c3s2)CC1,-12%,-1%,0%,2%,0%,-15%,0%,-8.6%
Cc1ccccc1NC(=O)COC(=O)c1cc[n+]([O-])cc1,x,u,x,2%,-1%,-9%,2%,x
COc1ccc(C2NC(=O)CCC2[N+](=O)[O-])cc1OC (stereo not drawn),x,x,u,2%,6%,-9%,x,x
COc1cccc(CNC(=O)c2sc3ncccc3c2-n2c(C)ccc2C)c1OC,-1%,x,x,x,x,u,u,-7.2%
CCCC1(c2ccccc2)NC(=O)N(C/C=C/Cl)C1=O (stereo not drawn),x,-16%[46.1 µM],21%,4%,3%,35%[activator],2%,x
COc1ccc(NC(=O)NCc2ccncc2)cc1,1%,-13%,4%,18%,1%,5%,-6%,-1.3%
CCC(C)c1ccccc1NC(=O)COC(=O)c1ccc2c(c1)S(=O)(=O)c1ccccc1C2=O (stereo not drawn),4%,24%,4%,8%,-28%,-13%,28%,-5.8%
O=C(O)CCN1C(=O)c2ccncc2C1=O,-2%,-11%,-34%,5%,-7%,23%,17%,6.2%
O=C(COC(=O)c1nc(Cl)ccc1Cl)Nc1ccc2c(c1)OCO2,x,-23%[46.1 µM],2%,12%,0%,-7%,12%,x
CC(C)CNC(=O)c1cccc(Cn2cc(Cl)cn2)c1,18%,19%,-14%,-4%,5%,19%,6%,3.3%
COc1ccc(CC(=O)N/N=C/c2cccnc2)cc1OC,x,x,-3%,-4%,-1%,-19%,x,x
CCN(CC(=O)Nc1c(F)cccc1F)C(=O)CCc1nc2cc(S(=O)(=O)N(C)C)ccc2n1CC,x,2%,-12%,-5%,-3%,0%,-22%,x
Cc1ccc(NS(=O)(=O)c2ccc(NC(=O)[C@@H]3CCCC[C@@H]3C(=O)O)cc2)c(C)c1,-6%,14%,27%,18%,-17%,-7%,4%,-0.1%
CCOc1ccc(C(=O)COC(=O)c2ccc(-n3cnnn3)cc2)cc1,x,x,6%,15%,4%,7%,x,x
CCOc1cc(/C=N/Nc2nc3ccccc3[nH]2)cc(Br)c1OCC(=O)N(C)C,x,u,-13%,-8%,2%,u,u,x
Cc1c(C(C)(C)C)c(C=S)n2ccccc12,-3%,-4%,2%,-16%,2%,-19%,-6%,-9.0%
CC(=O)NS(=O)(=O)c1ccc(NC(=O)CCc2ccccc2)cc1,-1%,u,15%,10%,-3%,-14%,3%,5.0%
CCc1ccc(CN2CCC(n3nccc3NC(=O)C3CCCC3)CC2)cc1,x,-57%,6%,-4%,-3%,-23%,u,x
CN1c2ccccc2C(C)(C)C12C=Cc1cc(O)ccc1O2 (stereo not drawn),0%,u,-6%,-9%,-4%,x,15µM*,-12%
Cc1ccc2c(CN(C)Cc3ccccc3)cc(=O)oc2c1C,x,u,-12%,4%,-1%,10%,u,x
COc1ccc(NC(=O)C2C(=O)N(CCO)C3(C)CC2c2ccccc2O3)cc1 (stereo not drawn),0%,30%&30%,-4%,-14%,-1%,7%,11%,6.6%
CC1CC(C)CN(S(=O)(=O)N2CCCC(C(=O)NC3CCCCC3C)C2)C1 (stereo not drawn),x,x,11%,0%,-1%,-15%,x,x
Cc1ccc(OCC(=O)N2CCCC(CO)(CCOc3ccccc3)C2)cc1 (stereo not drawn),x,-18%,-17%,7%,-2%,u,-21%,x
CC(=O)NC(CCS(C)(=O)=O)C(=O)Nc1ccc(Oc2ccccc2)cc1 (stereo not drawn),3%,x,1%,9%,10%,-21%,x,-0.4%
COc1ccccc1CNC(=O)C1CC(c2ccccc2C(F)(F)F)=NO1 (stereo not drawn),x,x,-3%,3%,-2%,5%,x,x
O=C(Nc1cccc([N+](=O)[O-])c1)c1ccncc1,-11%,4%,-1%,-8%,-6%,-1%,15%,0.5%
CCCCCOc1ccccc1C(=O)NCC(=O)O,1%,u,3%,-17%,-5%,-27%,15%,4.2%
O=C(Nc1cscc1S(=O)(=O)c1ccc(Cl)cc1)c1ccccc1Cl,x,x,1%,5%,-2%,19%,x,x
COc1ccc(C(=O)N(CCc2ccccc2)Cc2cccs2)c(OC)c1,x,u,-21%,11%,-13%,-8%,u,x
COc1ccc(NC(=O)c2sc3nc(C(F)(F)F)cc(C)c3c2N)cc1OC,u,15%[46.1 µM],x,x,x,-4%,2%[46.1 µM],6.2%
COc1ccc(OCCN(C)Cc2ccccc2)cc1,5%,7%,u,-2%,1%,12%,0%,1.8%
C=CCc1ccc(OCCOCCOc2cccc3ccc(C)nc23)c(OC)c1,-1%,-26%,-43%,-4%,11%,u,-7%,-4.6%
COc1ccc(-c2ccc(SCC(=O)c3ccccc3)nn2)cc1OC,x,-22%[46.1 µM],x,7%,-7%,-2%,-18%[46.1 µM],x
COc1ccc(-c2cc(C(F)(F)F)nc(N3CCN(C)CC3)n2)cc1OC,5%,12µM*,-2%,-10%,-5%,u,-27%,-2.5%
O=S(=O)(Nc1ccc2c(c1)OCCO2)c1ccc(F)c(F)c1,x,6%[46.1 µM],16%,-4%,7%,35%[activator],-4%,x
CCc1ccc(CNC(=O)c2ccc(CS(=O)(=O)Cc3ccccc3C)o2)cc1,4%,x,x,x,x,u,-23%[46.1 µM],-0.4%
CCOC(=O)c1cnc(SCc2cccc(C)c2)nc1N,-5%,-4%,11%,-11%,-5%,12%,1%,-7.1%
Cn1ccc2c(OCC(=O)NCc3ccccc3Cl)cccc2c1=O,-5%,x,x,x,x,-18%,-10%[46.1 µM],-5.6%
Cc1cc(C)cc(OCCNC(=O)C(C)N2C(=O)c3ccccc3C2=O)c1 (stereo not drawn),x,u,x,-11%,3%,-7%,-3%[46.1 µM],x
O=C1c2ccccc2C(=O)c2c1ccc(C(=O)N1CCCCC1)c2NCCO,17%,15%,-6%,-2%,5%,0%,18%,-3.2%
CCCCN(CCCC)C(=O)CSc1nnc2n(C)c(=O)c3c4c(sc3n12)CCCC4,u,u,5%,7%,-19%,-14%,12%,-3.6%
O=C(O)C1CSC(c2ccncc2)N1 (stereo not drawn),-11%,10%,-2%,13%,4%,-10%,4%,3.4%
CCN(CC)S(=O)(=O)N1CCC(C(=O)NCc2ccco2)CC1,x,0%[46.1 µM],x,1%,2%,-4%,4%[46.1 µM],x
Cc1nn(C)c(C)c1S(=O)(=O)N(CC(=O)NCc1ccco1)c1ccc(C(C)C)cc1,16%,x,-59%,x,-10%,x,x,-3.5%
CCOC(=O)C1CCCN(C(=O)Cn2nc(C)n3c(cc4c(OC)cccc43)c2=O)C1 (stereo not drawn),u,-17%&-17%[46.1 µM],-3%,4%,-5%,4%&-14%,x,-27%
Cc1noc(C)c1C(=O)NCc1ccccc1Br,x,-5%[46.1 µM],-3%,19%,1%,-10%,2%[46.1 µM],x
COc1ccc(/C=N\NC(=O)c2ccc([N+](=O)[O-])cc2)cc1COc1c(F)c(F)cc(F)c1F,x,x,u,11%,2%,u,x,x
COc1ccc(-c2[nH]ncc2CN2CCCC2c2nonc2C)c(F)c1 (stereo not drawn),x,u,6%,-30%,0%,-4%,0%,x
Cc1cccc(CSc2ncc(Cl)c(C(=O)Nc3sc4c(c3C#N)CCCC4)n2)c1,-8%,29%[46.1 µM],x,x,x,8%,2%[46.1 µM],-1.7%
N=c1n(CCN2CCCCC2)c2ccccc2n1CC(O)c1cccc(Br)c1 (stereo not drawn),4%,11µM*,0%,-11%,11%,u,u,2.2%
# (more compounds)
SMILES,Cruzain noTriton,Marburg entry inh,NS1 function inh,RE007 growth inh,SARS PLP yeast,StopGo reporter,Lassa entry inh,Cruzain Triton
CCCCC(=O)Nc1nnc(S(=O)(=O)N(CC)c2ccccc2)s1,x,x,-1%,-4%,-1%,-25%,x,x
Cc1cc(OCC(=O)N2C[C@H]3C[C@@H](C2)c2cccc(=O)n2C3)c2c(C)c(C)c(=O)oc2c1,x,x,2%,0%,-4%,-25%,x,x
Cc1ccc(S(=O)(=O)N2CCOC23CCN(C(=O)C(=O)NCc2ccccc2)CC3)cc1,x,0%,x,-4%,-2%,29%,10%,x
Cc1oc2c(C)c3oc(=O)c(CC(=O)N[C@@H](CCCNC(N)=O)C(=O)O)c(C)c3cc2c1C,x,x,4%,-4%,0%,3%,x,x
CC1C(=O)Nc2ccc(S(=O)(=O)NCc3ccc(N(C)C)cc3)cc2NC1=O (stereo not drawn),u,u,x,x,x,-1%,-17%[46.1 µM],-7.8%
c1cncc(C2CCCCN2Cc2ccc3c(c2)OCO3)c1 (stereo not drawn),-13%,1%,-11%,-5%,-6%,14%,u,2.5%
COC(=O)C1=C(C)N(CCc2c[nH]c3ccccc23)C(=O)/C1=C\N(C)C,x,-5%,-1%,-14%,11%,-26%,1%,x
CCN1CCN(CCCNC(=O)CCC(=O)N2CCOc3ccccc32)CC1,x,x,-1%,4%,-1%,-18%,x,x
CC(C)Cc1ccc(C(=O)NCc2ccc3c(c2)OCO3)o1,x,x,-48%,15%,-22%,-17%,x,x
CCOc1cccc(C2C(C#N)=C(N)Oc3cc(C)n(Cc4ccccn4)c(=O)c32)c1OCC (stereo not drawn),9%,7%[46.1 µM],8%,10%,4%,-4%,1%,4.4%
O=c1c2ccccc2nc(COc2ccccc2)n1/N=C/c1c[nH]c2ccccc12,0%,28%,-6%,11%,-21%,-8%,u,-3.9%
CCOc1ccc2nc(SCC(=O)NCc3ccco3)sc2c1,-11%,-2%,-21%,6%,-14%,5%,-2%,-8.0%
Cc1cc(C(=O)OCC(=O)Nc2ccccc2F)c(C)o1,-1%,13%[46.1 µM],-6%,-16%,2%,49%[activator],16%,1.7%
CN1CCN(S(=O)(=O)c2ccc(C(=O)NC3CCCCC3)cc2)CC1,x,-3%[46.1 µM],x,-1%,x,-6%,u,x
Cc1cccc(OCC(=O)Nc2nnc(-c3ccco3)s2)c1,x,u,9%,-14%,-6%,28%,1%,x

# Bioassay records: PubChem, National Center for Advancing Translational Sciences (NCATS)
